StopGo FLuc: Primary qHTS Assay for Foot and Mouth Disease Virus Antivirals against NCGC Sytravon and CBC Compound Libraries: Firefly Luciferase Signal. Potency, µM (titrated, usually from 57.5 µM), for the others: top-dose signal change, negative = less light. AID 1745856, 2022. HEK cells with a luciferase reporter of 2A StopGo recoding. 120,000 tested, 0.23% active; active = well fitted falling curve with a large enough effect; inconclusive = small, poorly fitted or top-dose-only effect; inactive = no such curve, though single readings can be large or run the other way; also: nearly all actives have a fitted effect of over 60% in size; overnight with compound
StopGo RLuc: Primary qHTS Assay for Foot and Mouth Disease Virus Antivirals against NCGC Sytravon and CBC Compound Libraries: Renilla Luciferase Signal | HEK cells with a luciferase reporter of 2A StopGo recoding | Potency, µM (titrated, usually from 57.5 µM), for inactives: at the top dose signal change, negative = less light | 120,000 tested, 0.32% active | AID 1745857, 2022; active means well fitted falling curve with a large enough effect; inconclusive means small, poorly fitted or top-dose-only effect; inactive means no such curve, though single readings can be large or run the other way; also: nearly all actives have a fitted effect of over 55% in size; overnight with compound
* marks the source's active call; other numbers are inactive results; ? = inconclusive; & = joins results of further samples; [ ] = dose if it differs, or a comment. % is scaled to controls: 0 for no effect and ±100 for the full control effect; potency is read from the fitted curve at half-maximal effect.

smiles | StopGo FLuc | StopGo RLuc
CCN(CC)CCSc1nc2ccccc2c(=O)n1-c1ccc(Cl)cc1 | -4% | 0%
CCCC(=O)NNC(=S)NC1CC1 | -14% | 10%
Cc1nn(C(C)C(=O)NC2CCC(C)CC2)c(=O)c2c1sc1ccccc12 (centres undefined) | 0% | 33%[activator]
O=C(Cn1cnc(S(=O)(=O)N2CCCC2)c1)Nc1cccc(F)c1 | -17% | -5%
O=C(NCc1ccccc1)c1cc2ccccc2oc1=O | 13% | -1%
CCc1cccc2c(CCO)c[nH]c12 | -10%[11.5 µM] | 7%
CC1(C)S[C@@H]2[C@H](N=CN3CCCCCC3)C(=O)N2[C@H]1C(=O)O | -10%[11.5 µM] | -3%
CC(c1nc(-c2cccs2)no1)N(C)Cc1cccc(Cl)c1 (centres undefined) | 12% | 4%
CCOC(=O)C1CCC(CN(Cc2cccc(Br)c2)S(=O)(=O)c2ccc(Cl)cc2)CC1 (centres undefined) | 7% | 2%
Cc1ccccc1NC(=O)Cn1c(=O)c2cccn2c2ccccc21 | -9% | -18%
Cc1ccc2c(COC(=O)CCCN=C3NS(=O)(=O)c4ccccc43)cc(=O)oc2c1 | 1% | 3%
CC(C)N(C(=O)c1cc2c(Cl)nc3ccccc3c2s1)C1CCCCC1 | -3% | -3%
O=C(CSc1nnnn1C1CCCCC1)NC(c1ccccc1)c1cccs1 (centres undefined) | 5% | 12%
C[C@H](NC(=O)Cc1n[nH]c(=O)c2ccccc12)C(=O)N1CCN(c2ccccc2)CC1 | -3% | -6%
CCN(CC)CCNC(=O)c1ccc2c(c1)N(Cc1ccccc1)C(=O)c1ccccc1S2=O (centres undefined) | -5% | 2%
CCCOC(=O)c1ccc(OC(=O)CCCOc2ccc(Cl)cc2Cl)cc1 | 70%[activator] | 8%
CN(C)S(=O)(=O)c1ccc(C(=O)OCC(=O)Nc2cccc(C(F)(F)F)c2)cc1 | -9% | -19%
CC(=O)c1cccc(NC(=O)c2ccccc2SCc2cccs2)c1 | 19% | 109%[activator]
Cc1nn(CCCC(=O)NCc2ccccc2Br)c(=O)c2c1sc1ccccc12 | -24% | 65%[activator]
Cc1ccc(NC(=O)CCc2c(C)nc3cc(-c4ccccc4)nn3c2C)cc1F | ? | -7%
CCOc1ccc(NC(=O)c2ccc(-c3ccccc3)s2)cc1 | 10% | -8%
COC(=O)c1cc(O)cc(C(=O)OC)c1 | -2% | 2%
Cc1cccc(N2CCN(C(=O)c3cc4c(=O)oc5ccccc5c4s3)CC2C)c1 (centres undefined) | -3% | -8%
CCC(C)OC(=O)Cn1nnc2sc3c(c2c1=O)CCCC3 (centres undefined) | 55%[activator] | 31%[activator]

Some of the entries above in a different format:
Below each SMILES: StopGo FLuc | StopGo RLuc
- CN(C)S(=O)(=O)c1ccc(C(=O)OCC(=O)Nc2cccc(C(F)(F)F)c2)cc1
    -9% | -19%
- CC(=O)c1cccc(NC(=O)c2ccccc2SCc2cccs2)c1
    19% | 109%[activator]
- Cc1nn(CCCC(=O)NCc2ccccc2Br)c(=O)c2c1sc1ccccc12
    -24% | 65%[activator]

Continuation.
smiles | StopGo FLuc | StopGo RLuc
COc1ccc(OC(C)C(=O)NCc2nc(-c3cccc(C)c3)no2)cc1 (centres undefined) | ? | ?
COc1ccc(Cl)cc1C(=O)Nc1ccc2nc(Nc3cccc(Cl)c3)cc(C)c2c1 | -5% | -2%
CN(CC(=O)N(C)C1CCS(=O)(=O)C1)c1ccc2ccccc2c1 (centres undefined) | 23% | -4%
O=C(Nc1ccc(F)cc1)C(c1ccccc1)N1CCN(C(=O)C2CC2)CC1 (centres undefined) | 14% | 6%
O=C(NCC1CCCO1)c1ccccc1-c1nc(-c2ccccc2)no1 (centres undefined) | 26% | 33%[activator]
Cc1[nH]c2ccccc2c1C(=O)c1cc2ccccc2o1 | 208%[activator] | 28%
CCOC(=O)c1nc2ccccc2nc1N1CCN(c2cccc(C)c2C)CC1 | -14% | -9%
CCOc1ccc(CNC(=O)c2ccc(CS(=O)c3ccccc3)o2)cc1 (centres undefined) | 9% | -9%
CCCCCn1nc(C(=O)OCc2nnc(-c3ccccc3)o2)c2ccccc2c1=O | 2% | -5%
CC(C)c1ccc(NS(=O)(=O)c2cc(Br)cc3c2N(C(=O)C2CC2)CC3)cc1 | -7% | 120%[activator]
COc1ccc(C(=O)N(Cc2sccc2C)C2CCS(=O)(=O)C2)cc1Cl (centres undefined) | 7%&0% | 18%&0%
O=C(Nc1ccc(Cl)cc1)C1Sc2nnc(-c3ccccc3)n2NC12CCCCC2 (centres undefined) | ? | ?
Cc1ccc(OCC(=O)Nc2ccc(S(=O)(=O)NC(C)(C)C)cc2)c(Br)c1 | 10% | 32%[activator]
CCOc1ccc(C(=O)Nc2cc(C)ccn2)cc1 | -49% | 12%
Cc1ccc2c(c1)C(=O)OC(C(=O)Nc1ncc(Cc3ccc(Cl)cc3)s1)C2 (centres undefined) | -5% | -14%
CCCCN(CC)C(=O)Cn1c(=O)n(-c2ccc(OCC)cc2)c(=O)c2c3c(sc21)CCCC3 | 1% | 5%
CCc1ccccc1N/C=C(\C#N)c1nc(-c2ccc(C)cc2)cs1 | 11% | 10%
CCOC(=O)c1ccc(CN(Cc2ccccc2C)S(=O)(=O)c2ccc(F)c(C)c2)cc1 | -14% | 34%[activator]
CC(C)(C)c1ccc(NC(=O)c2cc(F)c(F)c(F)c2F)cc1 | 201%[activator] | 1%
Cc1ccc(NC(=O)Cc2nc(-c3c[nH]c(C(=O)N4CCCC4)c3)cs2)c(C)c1 | -4% | -1%
Cc1nn2c(nnc3c(=O)n(-c4ccccc4)ccc32)c1-c1ccccc1 | 17% | 11%
COc1ccc(CNC(=O)CCc2c(C)nc3nc(CNC(=O)OC(C)(C)C)nn3c2C)cc1 | -2% | 0%
CC1(C)CC(=O)C2=C(C1)OC1=C(C(=O)CC(C)(C)C1)C2c1cccc(O)c1 | 3% | 26%
CCc1ccc(-n2c(=O)c3cccnc3n2CC(=O)Nc2cc(F)ccc2F)cc1 | 21% | 2%
COc1ccc(OC)c(NC(=O)NCc2nc(-c3cccc(Cl)c3)oc2C)c1 | 7% | -3%
CC(=O)c1sc2ccccc2c1C | 9% | -3%
CCC(C)(C#N)NC(=O)Cc1cccs1 (centres undefined) | 0% | 38%[activator]
O=S(=O)(Nc1nc2ccccc2nc1NC1CCCC1)c1ccc2c(c1)OCCO2 | 22% | 206%[activator]
O=C(O)C1CCN(C(=O)CSc2nnc(-c3ccccc3F)n2C2CCCC2)CC1 | 5% | 1%
COc1ccc(NC(=O)Cn2nnc(C(=O)NCc3ccccc3Cl)c2N)cc1Cl | 5% | 6%
COc1ccccc1CNC(=O)c1cc2cccc3c2n1CC(C)S3 (centres undefined) | 0% | 48%[activator]
COc1cccc(C2=CC(c3ccccc3F)n3ncc(C(=O)Nc4ccc(F)cc4)c3N2)c1 (centres undefined) | ? | -13%

Profiles as entered above. Screens in order: StopGo FLuc	StopGo RLuc
Shown for O=C(O)C1CCN(C(=O)CSc2nnc(-c3ccccc3F)n2C2CCCC2)CC1 → 5%	1%
Shown for O=S(=O)(Nc1nc2ccccc2nc1NC1CCCC1)c1ccc2c(c1)OCCO2 → 22%	206%[activator]
Shown for COc1cccc(C2=CC(c3ccccc3F)n3ncc(C(=O)Nc4ccc(F)cc4)c3N2)c1 (centres undefined) → ?	-13%

Carrying on:
smiles | StopGo FLuc | StopGo RLuc
Cc1ccc(N2CC(NC(=O)c3cccc(Cl)c3)CC2=O)cc1C (centres undefined) | -7% | 0%
Cc1ccc(C)c(N2CCN(C(=O)CN3C(=O)COc4ccc(S(=O)(=O)N5CCCCCC5)cc43)CC2)c1 | 11% | -2%
CCCCOCCCNC(=O)c1ccccc1SCC | 14% | 18%
Fc1cc(Br)ccc1OCc1coc(-c2ccccc2)n1 | 186%[activator] | 9%
CCc1ccc(C(N)c2cccs2)cc1 (centres undefined) | 0% | 21%
CC(C)c1ccc(CN(C)CC(=O)NC(N)=O)cc1 | 16% | 17%
O=C(CSc1nc2c([nH]c3ccccc32)c(=O)n1-c1ccccc1)N1CCc2ccccc21 | -24% | -17%
COc1ccc(CC(=O)NCCc2sc(-c3cccc(F)c3)nc2C)cc1 | -4% | 30%[activator]
Cc1ccc(C(=O)Nc2ccc(NC(=O)c3cccs3)cc2)cc1C | -15% | -4%
Cc1ccc(C)c2[nH]c(C(=O)O)cc12 | 9% | 2%
CC(Sc1ccc2ccccc2n1)C(=O)NC1CC1 (centres undefined) | 0% | 48%[activator]
CCOC(=O)C(C)Oc1cc(O)c2c(=O)cc(-c3ccccc3)oc2c1 (centres undefined) | 1% | 3%
C/C(Cc1ccccc1)=N\NC(=O)c1ccc(C(C)(C)C)cc1 | 155%[activator] | 24%
COCCCNC(=O)CSC1=Nc2ccccc2C2=NC(CCC(=O)NCc3ccc(OC)cc3)C(=O)N12 (centres undefined) | -17% | -9%
COCCn1cnc2c1c(O)nc(=O)n2Cc1ccccc1 | -2% | -7%
Cc1cccc(/C=C/C(=O)c2cccs2)c1 | 136%[activator] | 39%[activator]
O=C(NCCc1ccccc1)c1ccc2nc(N3CCCCC3)sc2c1 | 72%[activator] | -2%
Cc1ccc(Cl)cc1NC(=O)Cn1c(SCC(=O)NCc2ccccc2)nc2ccccc21 | 0% | -19%
Cc1ccccc1CCNC(=O)c1ccc(Cn2c(=O)c3cccn3c3cccnc32)cc1 | 308%[activator] | 280%[activator]
Cc1cccc(NC(=O)CCNS(=O)(=O)c2cccc3nonc23)c1 | 12% | 56%[activator]
CC(NC(=O)CSc1ccc2c(c1)OCCCO2)c1ccc2ccccc2c1 (centres undefined) | 9% | -5%
COC(=O)c1cc2sc(C)cc2n1CC(=O)Nc1ccc(C)c(C)c1 | 3% | 10%
CCCC(=O)Nc1cc2nn(-c3ccccc3)nc2cc1C | 211%[activator] | 20%
O=C(OCc1cccc2ccccc12)c1ccc(N2CCOCC2)nc1 | 4% | -12%[1.06 µM]
Cn1c(=O)[nH]c(=O)c2c1nc(SCC(=O)c1ccccc1)n2CCCc1ccccc1 | 8% | 13%
Cc1cc(Cl)ccc1NC(=O)C1CCCc2ccccc21 (centres undefined) | 11% | 40%[activator]
CCOC(=O)C1(C)C=C(Nc2ccc(CC)cc2)C(=O)N1c1ccc(CC)cc1 (centres undefined) | 21% | -6%
O=c1c2cnn(-c3ccc(Cl)cc3)c2ncn1Cc1cccc(C(F)(F)F)c1 | 0% | -13%
Cc1c(-c2nc(-c3ccccc3)no2)nnn1-c1cccc(C(F)(F)F)c1 | 26% | -7%
CCc1ccc(CN(C(=O)c2cc(=O)c3cc(Cl)ccc3o2)C2CCS(=O)(=O)C2)cc1 (centres undefined) | -12% | -3%
O=C(NC1(C(F)(F)F)NC(=O)N(CCc2ccccc2)C1=O)c1ccccc1F (centres undefined) | -7% | -6%
Cc1nc2cc(NC(=O)c3cc(S(=O)(=O)Nc4ccc(C)c(C)c4)ccc3Cl)ccc2o1 | -26% | 63%[activator]
Cc1cc(-c2ccc(N=Cc3cccc(Cl)c3)c(C)c2)ccc1N=Cc1cccc(Cl)c1 | 59%[activator] | 11%
CN(C)CCCNCCc1ccccc1 | -15% | -13%
O=C(/C=C/c1cccc(Br)c1)c1cccc(O)c1 | 126%[activator] | 46%[activator]
COc1ccc(N(CC(=O)Nc2ccc(Cl)cc2C)S(=O)(=O)c2ccccc2)c(OC)c1 | -12% | 106%[activator]
C=CCNC(=O)CC12CC3CC(CC(C3)C1)C2 | 35%[activator] | 15%
NS(=O)(=O)c1ccc(O)cc1 | 0% | 17%
Cc1ccc(NC(=O)N2CCc3cc(S(=O)(=O)N4CCC(C)CC4)ccc32)cc1 | -20% | 0%
CCCCCOC(=O)CSc1ncnc2c1sc1nc(N3CCOCC3)c3c(c12)CCCC3 | -10% | -11%

Some values from the results shown:
In StopGo FLuc, CC(C)N(C(=O)c1cc2c(Cl)nc3ccccc3c2s1)C1CCCCC1 is listed with -3%
In StopGo FLuc, Cn1c(=O)[nH]c(=O)c2c1nc(SCC(=O)c1ccccc1)n2CCCc1ccccc1 is listed with 8%
In StopGo RLuc, CCc1ccc(-n2c(=O)c3cccnc3n2CC(=O)Nc2cc(F)ccc2F)cc1 is listed with 2%

Further structures:
smiles | StopGo FLuc | StopGo RLuc
Cc1cc(C)cc(OCCn2cnc3c2c(=O)n(C)c(=O)n3C)c1 | -26% | ?
CCOC(=O)c1ccc(NC(=O)c2cc3c([nH]c2=O)CC(c2ccccc2)CC3=O)cc1 (centres undefined) | -6% | 1%
CCOc1ccc(-n2c(C)c(C(=O)O)c3cc(OC)ccc32)cc1 | 27% | -9%
COc1ccc(OCC(=O)Nc2c(C)ccc3nsnc23)cc1 | 6% | 6%
CCOc1ccc(C(=O)Nc2ccc3nc(SCC(=O)N4CCOCC4)sc3c2)cc1 | 35%[activator] | -9%
Nc1nc(COC(=O)c2ccc(CO)cc2)nc2ccccc12 | 0% | 21%
Cc1ccc2c(=O)cc(C(=O)Nc3c(C)cccc3C)oc2c1 | -13% | 3%
Cc1nc2cc(-c3ccc(Cl)cc3)nn2c(C)c1CCC(=O)N1CCN(c2ccccc2)CC1 | -5% | -10%
COc1ccccc1-c1nnc2n(CCc3ccccc3)c(=O)c3ccccc3n12 | 49%[activator] | 10%

Bioassay records: PubChem, National Center for Advancing Translational Sciences (NCATS)

Only part of the results is shown. The share of hits here may be higher or lower than overall.
